Screens as filed in PubChem.
T cruzi repl: blocks replication of Trypanosoma cruzi | T. cruzi beta-gal in NIH3T3, luminescence, 90 h | inhibition, % (no concentration beside the values) | hit rate 1.4% among 300,000 | AID 1885;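 active = mean inhibition across valid replicates above about 55%, limit read from the data; inconclusive = mean below that limit but half or more replicates reach it; inactive = mean below it, under half of replicates reach it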;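 note: signal also drops with host cell toxicity which is not excluded here; 0% = plate median of DMSO wells and 100% = zero luminescence signal; higher percent means less beta-gal luminescence so fewer parasites; stock transfer was 50 nL into about 50 µL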
B2AR ag: human beta-2 adrenergic receptor agonism by FAP; P07550; Am2.2-beta2AR cells, FAP receptor internalization, flow cytometry; reference of the scale not given here; response, % (concentration not given with the values); hit rate 0.43% among 340,000; AID 504454;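 active = response above a set limit, near 3 SD of response in nonfluorescent compounds, cut at about 42% in these data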;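 note: stock transfer was 100 nL into about 11 µL; a reference agonist was the positive control; negative values mostly stem from fluorescent compounds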
Target sequence (P07550 whole entry, looked up): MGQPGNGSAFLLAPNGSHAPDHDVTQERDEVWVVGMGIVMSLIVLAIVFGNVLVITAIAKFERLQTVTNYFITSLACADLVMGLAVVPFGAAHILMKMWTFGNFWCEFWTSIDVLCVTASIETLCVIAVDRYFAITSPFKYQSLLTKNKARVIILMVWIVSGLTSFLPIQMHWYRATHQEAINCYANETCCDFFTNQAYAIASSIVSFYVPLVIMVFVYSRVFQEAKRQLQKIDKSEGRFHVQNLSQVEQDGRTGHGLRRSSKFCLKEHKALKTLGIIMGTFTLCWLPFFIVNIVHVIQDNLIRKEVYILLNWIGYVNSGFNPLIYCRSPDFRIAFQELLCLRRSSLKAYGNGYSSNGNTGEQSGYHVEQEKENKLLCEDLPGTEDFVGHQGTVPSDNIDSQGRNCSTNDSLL
Beta cell apopt: beta cell apoptosis inhibition | protection from apoptosis, % (no concentration beside the values) | INS-1E cytokine-induced death, ATP luminescence, 48 h; percent of positive-control rescue, neutral wells zero | hit rate 0.8% among 300,000;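 active = all replicates at 75% or more, or half of them and the mean; inconclusive = half reach 75% but not the mean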;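 note: 0% = cytokine-treated negative control wells and 100% = positive control rescue; higher means more ATP so stronger rescue from cytokine killing; wells of about 40 µL received 100 nL stock; the first replicate is given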
ALR H2O2 inh: inhibitors of human sulfhydryl oxidase ALR | P55789 | purified ALR, DTT oxidation, H2O2 HRP-luminol luminescence | inhibition, % (concentration not given with the values) | hit rate 3.8% among 290,000;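 active = mean and each replicate at 75% or more; inconclusive = only one of the two met; inactive = neither met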;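 note: stock transfer was 7.5 nL into about 7.5 µL; 0% = neutral wells and 100% = wells with inactivated enzyme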
Target sequence (P55789 whole entry, looked up): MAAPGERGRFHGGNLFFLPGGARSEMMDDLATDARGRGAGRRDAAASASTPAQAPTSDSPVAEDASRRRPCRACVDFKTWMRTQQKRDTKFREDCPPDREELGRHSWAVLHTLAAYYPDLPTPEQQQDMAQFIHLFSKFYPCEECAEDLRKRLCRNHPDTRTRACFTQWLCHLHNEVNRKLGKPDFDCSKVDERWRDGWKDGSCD
LANA-H2A inh: blocks KSHV LANA binding to histone H2A/H2B; Q9QR71; cell-free LANA-H2A/H2B peptide, fluorescence polarization; inhibition, % (no concentration beside the values); hit rate 0.6% among 320,000; AID 2629; in the data active = inhibition mostly above about 10%, no sharp cut-off; inactive = mostly below about 6.7%;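 note: stock transfer was 7.5 nL into about 10 µL; 0% = median of vehicle wells and 100% = median of positive control wells; one replicate is shown; the record names a cut of 25% in any replicate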
Calb FLC: C. albicans growth modulation with fluconazole | C. albicans CaCi-2 (fluconazole-resistant clinical isolate) + fluconazole, Alamar Blue growth, 48 h | growth inhibition, % (test concentration not listed) | hit rate 0.57% among 300,000;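 active = most replicates above 75%; inconclusive = exactly half above 75%; inactive = most below 75%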;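 note: all wells also contain fluconazole at 8 µg/ml as a sub-toxic cotreatment; 0% = median of DMSO wells and 100% = median of geldanamycin control wells; wells of about 8 µL received 7.5 nL stock; the first replicate is given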
Ecoli rRNA inh: inhibits bacterial ribosomal RNA function over humanized ribosomes; GFP signal change (wild-type ribosome), % (test concentration not listed); E. coli WT GFP vs humanized-ribosome RFP mutants, fluorescence, 24 h; stronger effect = lower value; DMSO median 0, no signal -100; hit rate 1.6% among 350,000;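 active = significant combined selectivity score with lowered wild-type GFP, culture density cut under 30%, mutant RFP and density less affected; inactive = any of these conditions unmet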; note: one replicate is shown; some compounds called inactive have numbers as strong as hits
A1 inh: inhibitors of the anti-apoptotic protein A1, read as caspase activation; MEF A1-2A-BIM cells, Caspase-Glo 3/7 luminescence, 3 h; percent of clofoctol response, vehicle zero; caspase activation, % (no concentration beside the values); hit rate 0.066% among 330,000;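 active = over half of replicate activation scores above 10%, or exactly half above 10 with the replicate mean above 10; inconclusive = replicate mean below 10 yet half the replicates above 10; inactive = over half of replicates below 10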;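 note: wells of about 30 µL received 50 nL stock; many hits fall short of the cut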
Ecoli rRNA inh OD600: recorded beside Ecoli rRNA inh, whose call it bears; OD600 change, %; measured here: OD600 growth;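 optical density of the mix in the first replicate; 0 = DMSO median and -100 = no signal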
Ecoli rRNA inh RFP: recorded beside Ecoli rRNA inh, whose call it bears; RFP signal change, %; measured here: RFP humanized mutant strains;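 first replicate; 0 = DMSO median and -100 = no signal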
Starred values were filed as active, the others as inactive; ? = inconclusive; . = no result given.

SMILES	T cruzi repl	B2AR ag	Beta cell apopt	ALR H2O2 inh	LANA-H2A inh	Calb FLC	Ecoli rRNA inh	Ecoli rRNA inh OD600	Ecoli rRNA inh RFP	A1 inh
C=CCN(C(=O)CNC(=O)c1ccco1)C(C(=O)NC1CCCCC1)c1ccccc1 (stereo unspecified)	-17	-1	-3	-16	-8.8	6	.	.	.	1.9
Brc1ccc(OCCOCCOc2cccc3cccnc23)cc1	10	-3	.	-7	-3.5	-15	.	.	.	1.8
COC(=O)c1ccc(C(=O)OC)c(NC(=O)CN2CCN(c3ccccc3OC)CC2)c1	-11	-3	3	1	-0.1	0	.	.	.	-1.9
Cc1cc(C)n(CCCC(=O)O)n1	3	2	-5	-2	-3.3	-1	14	21	2.4	0.3
CCNC(=O)NC(=O)CSc1cccc(C(F)(F)F)c1	15	-4	2	-2	1.2	-8	0	12	0.0	1.1
CCc1nnc(SCC(=O)Nc2nccs2)n1CC	-10	9	4	-8	3.8	-21	7	6	1.8	-0.7
CC(=O)Cc1nsc(Nc2ccc(F)cc2)n1	.	1	-3	.	0.9	-15	2	3	2.6	-0.7
CC(=O)n1cc(N(C(=O)CCl)c2ccc(Cl)cc2)c2ccccc21	66*	46*	1	9	-0.5	30	.	.	.	2.8
Nc1cccc(CCc2nc3cc4ccccc4cc3[nH]2)c1	-54	10	5	2	1.7	-47	.	.	.	0.4
Cc1nn(CCCC(=O)NCc2ccccc2Cl)c(=O)c2nccn12	3	15	-4	-27	0.6	-11	7	4	0.6	-0.2
COCCNC(=O)c1ccc(NS(=O)(=O)c2ccc3[nH]c(=O)[nH]c3c2)cc1	-9	3	-10	-6	3.5	-2	11	18	-0.6	-0.6
O=C(Cc1c(Cl)cccc1Cl)Nc1ccncc1Cl	-14	-2	3	-1	-2.1	-45	-1	-7	-3.0	0.2
COC(=O)[C@]1(Cc2ccccc2)N[C@H](CN(C)S(=O)(=O)c2ccc(OC)cc2)[C@@H]2C(=O)N(C)C(=O)[C@@H]21	.	-5	-6	.	-3.8	.	21	18	2.8	0.5
C=CCn1c(SCC(=O)NC23CC4CC(CC(C4)C2)C3)nc2cc(C(=O)O)ccc2c1=O	1	-6	-3	-3	-1.7	-1	-23*	-18*	-2.8*	-0.2
CCc1sc(NC(=O)COC)nc1-c1ccccc1	9	0	-5	-3	-1.5	-9	.	.	.	0.1
CSc1ccc(C2c3[nH]c4ccccc4c3CCN2C(=O)c2cc(C)n(C)n2)cc1 (stereo unspecified)	53	.	3	-4	-1.5	31	.	.	.	-0.4
CC(C)Cn1c(SCC(=O)NC(=O)Nc2ccc3c(c2)OCCO3)nc2ccccc2c1=O	-12	4	-2	-9	-2.1	2	.	.	.	1.6
CC(C)(C)c1nnc(NC(=O)C2CCN(c3ncccn3)CC2)s1	-2	-11	-6	-4	-2.1	5	.	.	.	-0.7
CCN1CCN(c2ccc(NC(=O)COc3ccc([N+](=O)[O-])cc3)cc2)CC1	0	5	-8	-2	0.2	-2	15	16	-1.8	1.6
CC(=O)Nc1cc2c(nc1C)nc(C)n2Cc1ccc(Br)cc1	-17	-2	-4	-1	-5.1	3	.	.	.	-0.4
COc1ccc2cc(Br)ccc2c1CC(=O)N1CCCC1	-5	-5	-2	-7	0.8	-4	5	15	-0.4	1.2
COCCn1nnnc1C(c1ccccn1)N1CCN(c2cc(C)ccc2C)CC1 (stereo unspecified)	-13	8	-3	23	1.5	-2	11	0	-5.6	0.2
CCOc1ccc(OCC)c(NC(=O)C2CCCN(S(=O)(=O)c3cnc[nH]3)C2)c1 (stereo unspecified)	10	8	-3	-180	-2.2	0	5	0	3.1	-0.1
O=C(Nc1nccs1)c1ccccc1[N+](=O)[O-]	1	-4	-6	-12	-1.2	4	8	15	3.0	-0.1
CCc1ccc(N=Nc2ccc(O)c3[nH]cnc23)cc1	.	-164	4	-32	-6.1	.	7	8	8.2	-4.5

Going on with the list:
SMILES	T cruzi repl	B2AR ag	Beta cell apopt	ALR H2O2 inh	LANA-H2A inh	Calb FLC	Ecoli rRNA inh	Ecoli rRNA inh OD600	Ecoli rRNA inh RFP	A1 inh
O=C(Nc1cccc([N+](=O)[O-])c1)c1ccn[nH]1	-8	-1	-4	3	2.1	-1	13	15	0.8	-6.7
O=C(C1CCN(S(=O)(=O)c2ccccc2)CC1)N(CCc1ccccc1)Cc1ccco1	8	4	3	-4	-0.2	2	.	.	.	0.3
O=C1CCC(=O)N1CCOP1(=O)COc2ccccc2OC1	-4	3	.	3	5.9	-8	.	.	.	0.2
Cc1cc(NC(=O)Cc2cccs2)no1	.	-1	-7	.	2.0	.	.	.	.	0.0
COC(=O)Cn1cc(/C=N/NC(=O)COc2cccc3cccnc23)c2ccccc21	-4	48*	-13	19	4.7	-4	6	0	-6.3	1.0
COc1ccc(Cl)cc1N(C(C)C(=O)NC1CCCC1)S(C)(=O)=O (stereo unspecified)	-10	1	-12	-3	5.6	?	4	3	-0.6	0.4
COc1cccc(CC(=O)Nc2nccs2)c1	-4	-7	-1	-7	-1.0	-18	.	.	.	0.2
Cc1ccc(OCC(=O)Nc2sc3c(c2C#N)CCC3)cc1	22	-3	-3	-2	6.0	-3	7	8	-0.1	-0.9
O=c1cc(-c2ccccc2Cl)oc2c(NS(=O)(=O)c3ccccc3OC(F)(F)F)ccc(O)c12	4	5	5	-6	2.7	30	-5	-13	-6.5	0.1
CC(Oc1ccc2c3c(c(=O)oc2c1)CCC3)C(=O)NCCCn1ccnc1 (stereo unspecified)	-6	-11	3	-3	1.2	2	9	7	0.7	-0.7
COc1cc(C(=O)NCCNC(=O)c2cnccn2)cc(OC)c1OC	-4	6	-2	-15	-2.0	1	7	16	0.6	-0.2
CC(C)c1ccc(N2C(=O)CC(Sc3nc4ccccc4o3)C2=O)cc1 (stereo unspecified)	36	20	.	-2	3.7	?	.	.	.	0.3
CCCCC(CC)CNC(=O)CN1C(=O)NC2(CCc3ccccc32)C1=O (stereo unspecified)	-18	-5	-3	0	-4.7	0	-1	0	2.4	-1.0
CCCCN1CC[C@H]2C=CC[C@@H](C(=O)NCc3ccc(OC)cc3)[C@H]2C1=O	-8	-7	-3	0	-4.4	-10	4	-6	-5.3	-1.1
Cc1cc(C(=O)NCc2ccco2)no1	-15	9	-2	32	0.7	3	.	.	.	0.1
COc1cccc(/C=N/NC(=O)c2ccc(-c3ccccc3)cc2)c1O	-7	0	107*	-6	3.5	-6	.	.	.	0.2
CC(=O)Nc1ccc(NC(=O)CN(c2ccc(C(C)C)cc2)S(=O)(=O)c2ccccc2)cc1	5	-2	13	-2	11	-21	3	18	0.4	0.0
O=C(CSc1nc2ncc(Cl)cc2[nH]1)Nc1cccc(F)c1	-13	1	25	-15	3.0	-8	-4	18	20	1.7
O=C(O)CC1(CC(=O)NCc2ccc(Cl)cc2)CCCCC1	-8	-3	.	.	-6.4	-11	-5	-3	-0.6	0.7
O=S(=O)(c1ccc(C2CCCCC2)cc1)N1CCOCC1	2	2	5	-2	2.1	-14	.	.	.	-1.2
CCC(=O)N/N=C(\C)CC(=O)Nc1ccc(Cl)cc1	-4	-1	0	5	-6.5	-21	-12	-11	-2.5	0.0
Cn1nnnc1SCc1csc(C2C(C#N)=C(N)OC3=C2C(=O)CCC3)c1 (stereo unspecified)	4	-1	-1	8	5.2	3	0	-2	1.7	-0.6
COc1cc(/C=C\C(=O)OCn2nnc3ccccc3c2=O)cc(OC)c1OC	11	7	-2	-1	-0.3	-4	-4	-11	-9.4	1.8
CS(=O)(=O)Nc1cccc(-c2cn3c(n2)SCC3)c1	-5	-2	-12	5	2.1	0	3	7	-1.6	-0.2
O=C1CSC(c2ccccc2[N+](=O)[O-])N1c1ccc(O)cc1 (stereo unspecified)	-23	-1	-10	-16	-3.7	-6	-3	0	0.7	-0.6

Remaining list, next part.
SMILES	T cruzi repl	B2AR ag	Beta cell apopt	ALR H2O2 inh	LANA-H2A inh	Calb FLC	Ecoli rRNA inh	Ecoli rRNA inh OD600	Ecoli rRNA inh RFP	A1 inh
Cc1cc(N/N=C/c2ccccc2)nc(N2CCOCC2)n1	12	6	.	.	-3.2	0	12	19	-0.7	-0.2
CCCCC(=O)Nc1nn(C)c2nc3c(C)cccc3cc12	-1	2	-14	-40	-0.4	2	.	.	.	-0.6
CCCCN1C(=N)N([C@@H](CN2CCC[C@H]2CN2C(N)=NC[C@@H]2Cc2ccccc2)C(C)C)C[C@H]1Cc1ccccc1	.	-2	-4	4	0.5	.	-55	-78	-26	0.1
CN(C)c1ccc(NC(=S)NC(=O)/C=C/c2ccco2)cc1	-11	-6	-3	12	2.6	25	3	9	-2.5	0.0
COC(=O)c1cccc(NC(=O)CSc2nnc(COc3ccccc3)n2C)c1	-6	2	-7	-16	-0.7	-1	.	.	.	-0.5
CC(C)NC(=O)c1ccc2c(c1)N(CC(=O)N1CCOCC1)C(=O)C(C)(C)O2	-8	-1	-3	8	4.8	3	.	.	.	-0.5
Cc1ccc(/C=N\Nc2nc3ccc(Cl)cc3[nH]2)o1	21	3	22	95*	-0.3	1	-60	-77	-30	-0.8
O=C1c2ccccc2C(O)(c2ccccc2)N1C1CC1 (stereo unspecified)	-8	5	-13	-2	7.2	3	2	-1	-3.8	0.4
CC1CCCC(C)N1C(=O)COC(=O)COc1ccccc1C#N (stereo unspecified)	.	0	-1	5	3.8	.	8	2	3.2	0.8
O=C(N1CCN(c2ccccn2)CC1)N1c2ccccc2Sc2ccccc21	20	14	12	-12	3.3	23	.	.	.	1.8
O=C(CCCC(=O)N(CC(=O)NC1CCCCC1)CC1CCCO1)Nc1ccccn1 (stereo unspecified)	0	-3	2	-7	-1.3	40	.	.	.	-0.1
Cc1nc(NC(=O)c2ccccc2)sc1-c1csc(Nc2ccc(Cl)cc2)n1	-1	.	5	52	1.3	13	.	.	.	-11
O=C(Nc1nnc(-c2ccc3c(c2)CCCC3)o1)c1ccc(Cl)cc1Cl	-3	-1	-3	.	-2.9	85*	-57	-77	-17	1.1
O=c1c2c3c(sc2ncn1/N=C/c1ccncc1)CCCC3	-4	0	-2	9	-0.7	15	13	-6	2.3	-0.3
CC(C)N(Cc1ccccc1)C(=S)NC1CCCCC1	-10	-1	-4	.	1.0	-6	-24	-34	-2.1	2.3
COc1ccc(CCNC(=O)C(=O)NCc2ccccc2C)cc1OC	-15	3	2	.	5.4	-6	21	14	2.2	1.6
CCN1C(=NCc2cccc(Cl)c2)N[C@@H](c2cccc(F)c2)C(C(=O)OC)=C1C	17	12	4	4	1.9	-4	-40	-73	-12	0.2
CC(=O)NC(C)c1nc2ccccc2n1Cc1ccccc1F (stereo unspecified)	-1	-6	1	.	0.2	?	.	.	.	0.9
O=C(CN1CCc2cc3c(cc2C1)OCCCO3)Nc1ccccc1	22	6	-3	25	-6.3	-8	.	.	.	0.3
CCSc1nnc(NC(=O)[C@H](C)N2C(=O)C3CC=CCC3C2=O)s1 (stereo partly specified)	3	-2	-2	8	-3.3	-2	1	0	-1.6	0.8
Cn1cccc1/C=N/NC(=O)c1ccn[nH]1	-5	-11	-5	7	-10	3	.	.	.	-3.8
O=C(CSc1nc2ncc(Cl)cc2[nH]1)NCCc1ccc(F)cc1	10	6	0	.	-2.4	30	-11	-12	2.8	1.1
C=CCOc1ccc(/C=N/NC(=O)C(C)Sc2ccccn2)cc1OC (stereo unspecified)	11	-35	1	-5	0.9	-16	2	-3	1.3	-0.3

This is a subset, so the mix of outcomes need not match the whole.
